Marburg entry inh: qHTS for inhibitors of binding or entry into cells for Marburg Virus. hit rate 1.8% among 300,000. Marburg virus pseudotyped entry inhibition, cell reporter; control for the full effect not named in the record; about a third of the inactives were read at about 46 µM. AID 540276, 2011. Potency, µM (series often up to 37.8 µM), for inactives: top-dose activity change, negative = inhibition, actives largely listed as inhibitors; active = well fitted inhibition curve with a large enough effect; inconclusive = small, poorly fitted or top-dose-only effect, or effect the other way; inactive = flat fitted curve, though single readings scatter; tested in HEK293 cells; about a fifth of its hits are not listed in these tables; note: % is set by controls: 0 for no effect and ±100 for the full control effect; luciferase read-out
Cruzain inh Det: qHTS Assay for Promiscuous and Specific Inhibitors of Cruzain (with detergent); Cruzipain (Trypanosoma cruzi), P25779; AID 1478, 2009; hit rate 0.43% among 200,000; purified cruzain, Z-FR-AMC fluorescence, 0.01% Triton; Potency, µM, for inactives: max response, negative = inhibition, hits mostly inhibitors; active = well fitted curve in the direction sought with a large enough effect; inconclusive = small, poorly fitted or top-dose-only effect, or another doubt; inactive = no such curve, though single readings can be large; an effect the other way counts as inactive or inconclusive;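 note: plate controls were neutral wells for no effect and buffer without enzyme for full effect; nearly all actives have a fitted effect of over 40% in size; top concentration of the series not given in the record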
Target sequence (P25779 123-467 limits assumed): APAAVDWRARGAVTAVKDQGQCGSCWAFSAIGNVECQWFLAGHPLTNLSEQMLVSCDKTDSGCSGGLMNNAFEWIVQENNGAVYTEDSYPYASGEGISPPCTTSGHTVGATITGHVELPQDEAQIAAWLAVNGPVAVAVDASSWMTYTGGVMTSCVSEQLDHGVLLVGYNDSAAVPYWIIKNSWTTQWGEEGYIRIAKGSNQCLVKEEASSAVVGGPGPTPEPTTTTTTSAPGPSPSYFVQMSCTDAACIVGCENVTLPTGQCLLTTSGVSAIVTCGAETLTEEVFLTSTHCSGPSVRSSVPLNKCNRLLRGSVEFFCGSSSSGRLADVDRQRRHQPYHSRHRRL
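Detergent-containing run (0.01% Triton X-100) in acetate buffer pH 5.5 with 5 mM DTT: enzyme at 1.5 nM final, 15 min compound preincubation at room temperature, then 2 uM Z-FR-AMC substrate. Activity taken as 60 s fluorescence increase at 360/450 nm.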
SARS PLpro yeast: qHTS of Yeast-based Assay for SARS-CoV PLP; hit rate 0.19% among 330,000; S. cerevisiae expressing SARS-CoV PLpro, growth rescue; control for the full effect not named in the record; Potency, µM (top dose mostly 32.9 µM), inactives show at the top dose activity, positive = growth rescue; note: 0% is about no effect; nearly all actives have a fitted effect of over 55% in size; growth read by luminescence after 48 h
RE007 growth inh: qHTS Assay for Inhibitors of the HIV-1 protein Vpr; S. pombe RE007 Vpr strain, BacTiter-Glo ATP luminescence, 24 h; control for the full effect not named in the record; AID 651644, 2012; Potency, µM (top dose mostly 92.2 µM), without a hit: at the top dose activity change, negative = less growth; hit rate 0.21% among 360,000; active = well fitted falling curve with a large enough effect; inconclusive = small, poorly fitted or top-dose-only effect; inactive = no such curve, though single readings can be large or run the other way;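 note: % is set by controls: 0 for no effect and ±100 for the full control effect; nearly all actives have a fitted effect of over 50% in size; the assay follows cell death caused by Vpr and the record does not say whether a fall means rescue or toxicity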
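Fission yeast strain RE007, carrying one chromosomally integrated HIV-1 vpr copy, was seeded at OD 0.01 in PMG+AL medium with 23 nL pinned compound. After 24 h at 30 °C and 99% humidity, viability was read by BacTiter-Glo luminescence.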
Cruzain noTriton: qHTS Assay for Promiscuous and Specific Inhibitors of Cruzain (without detergent). Cruzipain (Trypanosoma cruzi), P25779. purified cruzain, Z-FR-AMC fluorescence, no detergent. Potency, µM, for inactives: max response, negative = inhibition, hits mostly inhibitors. hit rate 2.3% among 200,000. AID 1476, 2009; active = well fitted curve in the direction sought with a large enough effect; inconclusive = small, poorly fitted or top-dose-only effect, or another doubt; inactive = no such curve, though single readings can be large; an effect the other way counts as inactive or inconclusive;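 note: plate controls were enzyme without inhibitor for no effect and buffer without enzyme for full effect; nearly all actives have a fitted effect of over 40% in size; top concentration of the series not given in the record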
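Detergent-free condition (0.00005% Triton X-100) in acetate buffer pH 5.5 with DTT. 1.5 nM enzyme and compound were pre-mixed 15 min, then 2 uM Z-FR-AMC substrate added; reaction progress from fluorescence change between first and third reads (60 s).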
StopGo reporter: High Throughput Screening for Foot and Mouth Disease Virus Antivirals; human cells with a luciferase reporter of 2A StopGo recoding; control for the full effect not named in the record; Potency, µM (doses to about 57.9 µM), inactives show top-dose signal change, negative = less light; hit rate 1.2% among 410,000; AID 1159524, 2015; active = well fitted falling curve with a large enough effect; inconclusive = small, poorly fitted or top-dose-only effect; inactive = no such curve, though single readings can be large or run the other way; tested in HEK293T cells; note: % is set by controls: 0 for no effect and ±100 for the full control effect; nearly all actives have a fitted effect of over 45% in size; luciferase light after 4 h
NS1 inh: qHTS Assay for Inhibitors of Influenza NS1 Protein Function. S. cerevisiae slowed by influenza A NS1, growth recovery by OD600. Potency, µM (doses to about 46.1 µM), for inactives: at the highest dose activity, positive = more growth. hit rate 0.4% among 270,000. AID 2326, 2010; note: actives are rising curves; nearly all actives have a fitted effect of over 50% in size
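Read-out: OD600 growth recovery of NS1-expressing budding yeast. Cells grown overnight at 30C in -URA glucose medium, washed, resuspended and diluted 1:100 in 2% galactose assay medium, pH 6.0. Same strain lacking NS1 served as positive control.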
LASV entry inh: qHTS for Inhibitors of binding or entry into cells for Lassa Virus; AID 540256, 2011; Lassa virus pseudotype entry inhibition, cell reporter; control for the full effect not named in the record; Potency, µM (doses to about 37.9 µM), without a hit: at the highest dose activity change, negative = inhibition, hits mostly inhibitors; hit rate 1.2% among 300,000; active means well fitted inhibition curve with a large enough effect; inconclusive means small, poorly fitted or top-dose-only effect, or effect the other way; inactive means flat fitted curve, though single readings scatter; tested in HEK293 cells; note: % is set by controls: 0 for no effect and ±100 for the full control effect; nearly all actives have a fitted effect of over 50% in size; luciferase read-out
* marks the source's active call; other numbers are inactive results; ? = inconclusive; nt = not tested or not shown; & = joins results of further samples; [ ] = dose if it differs, or a comment. Unless noted, calls come from the whole dose curve; as a rule, active means well fitted rising curve with a large enough effect; inconclusive means small, poorly fitted or top-dose-only effect; inactive means no such curve, though single readings can be large or run the other way. Potency is the fitted concentration of half-maximal effect.

SMILES	Marburg entry inh	Cruzain inh Det	SARS PLpro yeast	RE007 growth inh	Cruzain noTriton	StopGo reporter	NS1 inh	LASV entry inh
Cc1ccccc1-n1c(SCC(=O)N2CCOCC2)nc(O)c(Cc2ccccc2)c1=O	?	nt	-1%	1%	nt	-4%	5%	1%[46.1 µM]
COc1cccc(CSc2nc3n(n2)C(c2cccnc2)C(C(=O)Nc2ccccc2C)=C(C)N3)c1 (configuration not stated)	nt	1.8%	nt	nt	-2%	-6%	nt	20%[46.1 µM]
Cc1cccc(OCCC(=O)Nc2ccc(Cl)cc2F)c1	-2%[46.1 µM]	nt	?	-9%	nt	-6%	-46%	14%[46.1 µM]
CCc1ccccc1OCCCCN1CCCCC1	?	nt	-4%	-4%	nt	-22%	-13%	?
CCN(CC)C(=O)C1CCCc2c1[nH]c1ccc(Cl)cc21 (configuration not stated)	nt	-10%	-68%	6%	10%	-2%	-76%	nt
O=C(CCc1nc2sc3c(c2c(=O)[nH]1)CCCC3)NCC(=O)Nc1ccccc1Br	?	nt	5%	-4%	nt	-7%	nt	3%
Nc1[nH]c(N=NC(=O)c2ccccc2O)c2ccccc12	?	-11%	16%	4%	-9%	-18%	24%	?
Cc1ccc(NC(C(=O)c2ccccc2)c2ccccc2)cc1 (configuration not stated)	?	nt	nt	-20%	nt	-2%	nt	?
CCOC(=O)C1CN(S(=O)(=O)c2ccc(OC)cc2)c2cc(S(=O)(=O)CC)ccc2O1 (configuration not stated)	10%	-7.7%	3%	-7%	?	-9%	-4%	?
O=C(Nc1ccccc1C(F)(F)F)NC1(C(=O)N2CCOCC2)CCCCC1	7%[46.1 µM]	nt	nt	-12%	nt	6%	nt	0%
COc1ccccc1CC(=O)Nc1ccc(S(=O)(=O)N2CCCC2)cc1	-3%[46.1 µM]	nt	4%	-11%	nt	-7%	-4%	nt
Cc1ccc(C(=O)Nc2ccc(Cl)c(-c3nc4ncccc4o3)c2)c(C)c1	-3%[46.1 µM]	-7.5%	nt	nt	-19%	21%	nt	4%[46.1 µM]
Cc1cc(C)n(-c2cc(-n3nc(C)cc3C)ncn2)n1	-1%[46.1 µM]	-3.4%	?	-4%	2%	3%	2%	3%
CC(=O)NCCc1nc2cc(NC(=O)COc3ccc(C)cc3)ccc2n1C	?	nt	4%	-13%	nt	7%	-2%	8%
Cc1ccc(OCCNC(=O)c2cccc(Oc3ccc(C(F)(F)F)cc3[N+](=O)[O-])c2)cc1	15%	-6.1%	12%	11%	-11%	?	2%	?
CC(=O)NC(Cc1ccccc1C)C(=O)NC1CCN(c2ncccc2[N+](=O)[O-])CC1 (configuration not stated)	-2%	-10%	-12%	nt	10%	nt	-1%	-1%
CCC(=O)N1CCc2cc(Br)cc(S(=O)(=O)NCCN3CCCC3)c21	?	nt	9%	-10%	nt	5%	4%	1%[46.1 µM]
Cc1ccc(NC(=O)Cn2nc(N3CCN(c4ccccc4)CC3)ccc2=O)cc1F	nt	-7.0%	nt	nt	?	-28%	nt	-23%[46.1 µM]
O=C(CSc1nnc(SCc2cccc3ccccc23)s1)N=Nc1c(O)[nH]c2ccccc12	5%	-4.1%	6%	nt	7.9µM*	nt	3%	nt
Cc1ccc(CNC(=O)c2ccc3c(c2)nc2n3CCCC2)cc1	nt	2.2%	nt	nt	6%	62%[activator]	nt	?
Cc1ccc[n+](CC(=O)Nc2ccc([N+](=O)[O-])cc2)c1	nt	nt	3%	28%	nt	0%	-78%	nt
CCOC(=O)Nc1ccc(C(=O)Oc2ccccc2)c(O)c1	22%	-7.0%	-11%	4%	13%	nt	-32%	-20%
CC(C)(C)c1ccc(C(=O)Nc2cnccn2)cc1	?	7.8%	-4%	-7%	9%	-55%	-7%	?
O=C(CCn1c(=O)c2ccccc2n(Cc2cccc(Cl)c2)c1=O)NCCc1ccccc1	?	0.0%	nt	nt	-8%	-5%	nt	6%[46.1 µM]
O=C(O)C1Nc2c(C(=O)N3CCOCC3)cccc2C2C=CCC12 (configuration not stated)	-10%	-4.8%	2%	20%	24%	?	5%	0%
COc1ccc(S(=O)(=O)N2CCc3cc4c(cc3C2C)OCCCO4)cc1 (configuration not stated)	nt	nt	-7%	5%	nt	0%	-31%	nt
COc1ccccc1NC(=O)NC(=O)N(C(C)C)S(C)(=O)=O	1%	1.4%	3%	1%	-6%	-7%	?	-17%
CCOC(=O)c1[nH]c(C)c(C(=O)NCCc2ccccc2)c1C	-18%[46.1 µM]	-8.0%	nt	nt	18%	42%[activator]	nt	-18%[46.1 µM]
COc1ccc(CC(=O)c2cc(OC)c(OC)cc2CC(=O)O)cc1OC	-1%	0.4%	4%	1%	-6%	-19%	13%	3%
C1=Nc2c(Nc3ccccc3)ncnc2Oc2ccccc21	?	-11%	-9%	-5%	-3%	?	-18%	?
COc1ccccc1NC(=O)COC(=O)C1C2CC3OC(=O)C1C3C2 (configuration not stated)	-11%[46.1 µM]	nt	1%	0%	nt	-4%	24%	-20%[46.1 µM]
COc1ccccc1NC(=O)CSc1nc2c(oc3ccccc32)c(=O)n1-c1ccccc1F	-10%[46.1 µM]	-1.6%	nt	nt	-5%	?	nt	nt
O=C(O)C1CC1C(=O)Nc1cc(F)ccc1F (configuration not stated)	-3%[46.1 µM]	nt	-2%	-9%	nt	-7%	-2%	0%[46.1 µM]
CC1CCN(C(=O)C2CCC(=O)N(Cc3ccc(Cl)cc3)C2)CC1 (configuration not stated)	nt	nt	0%	10%	nt	-19%	0%	nt
Cc1cccc(C(=O)NCC(=O)NCC(c2cccs2)N2CCOCC2)c1 (configuration not stated)	-25%	nt	1%	-19%	nt	-9%	nt	13%
CCCCCN(C(=O)CCC(=O)OCc1ccccc1F)c1c(N)n(CCCC)c(=O)[nH]c1=O	-3%	nt	-2%	-23%	nt	-21%	nt	4%
CN(C)c1ccc(/C=C/c2cc[n+](C)c3ccccc23)cc1	7.9µM*	nt	-6%	?	nt	8.9µM*	-59%	?
Cn1c(N)c(C(C[N+](=O)[O-])c2c(F)cccc2Cl)c(=O)n(C)c1=O (configuration not stated)	-12%[46.1 µM]	nt	-8%	?	nt	-14%	-60%	-29%[46.1 µM]
Clc1ccc(Sc2ccccn2)cc1	nt	nt	1%	-12%	nt	3%	6%	nt
Oc1ccc2c(c1)c1c3n2CCNC3CCC1 (configuration not stated)	11%	nt	-4%	-12%	nt	-5%	2%	-29%
Cc1ccc(N2C(=O)CS(=O)C(c3ccccc3)C2=O)cc1C (configuration not stated)	?	nt	0%	-1%	nt	45%[activator]	15%	-2%
COc1ccc(F)cc1S(=O)(=O)NCCc1csc2nc(-c3cccc(C)c3)nn12	nt	-8.8%	nt	nt	?	64%[activator]	nt	-3%[46.1 µM]
CCOC(=O)N1CCC(NC(=O)C2CCCN(c3nc4ccccc4o3)C2)CC1 (configuration not stated)	-23%	-0.1%	?	-1%	?	-23%	-19%	-3%
Cc1ccc(CCNS(=O)(=O)c2cc3c(cc2Cl)NC(=O)CO3)cc1	nt	nt	1%	-16%	nt	10%	7%	nt
CN(c1ccccc1)S(=O)(=O)c1cc(C(=O)OCC(=O)N2CCN(C(=O)c3ccco3)CC2)ccc1Cl	-20%	nt	-1%	1%	nt	25µM*	-3%	-15%
CCCCN(C)CCNC(=O)CN1C(=O)CSc2ccc(S(=O)(=O)N3CCOCC3)cc21	nt	1.0%	2%	-11%	-5%	-2%&1%	-8%	-8%[46.1 µM]
CCCCCn1cc(C(=O)C(=O)N2CCOCC2)c2ccccc21	-12%[46.1 µM]	nt	1%	-10%	nt	1%	-6%	9%[46.1 µM]
COc1cc(CC(=O)O)ccc1O	18%&18%&18%&26%&18%&18%&18%	3.5%	2%	5%[18.4 µM]	1%	0%&-3%	-5%&6%	8%
C=C(C)CC1N(c2cccc(OC)c2)C(=O)C2C(C(=O)O)C3C=CC21O3 (configuration not stated)	nt	1.2%	-1%	8%	-4%	-9%	-1%	nt
CN(Cc1c(C(=O)N/N=C/c2c(F)cccc2Cl)nnn1-c1nonc1N)c1ccccc1	nt	nt	-13%	17%	nt	2%	-5%	nt
OCC(Cc1ccccc1)Nc1c2ccccc2nc2ccccc12 (configuration not stated)	?	-4.8%	17%	-17%	-3%	?	-8%	6%
COc1ccc(C(=O)NC(=S)Nc2cccc3nc(C)ccc23)cc1OC	nt	nt	-1%	-21%	nt	-36%	9%	nt
Cc1cccc(NC(=O)CNC(=O)COC(=O)C2CC2C)c1C (configuration not stated)	-2%	nt	3%	6%	nt	-2%	nt	4%
COc1ccc(Cc2nc3ccccc3c(=O)n2N)cc1OC	?	nt	nt	9%	nt	-36%	nt	2%[46.1 µM]
COc1ccccc1NC(=O)c1ccccc1NC(=O)c1ccccc1C(=O)O	nt	nt	1%	-20%	nt	-10%	?	nt
COc1ccc(C(=O)Nc2ccnn2C2CCN(Cc3cn(C)nc3C)CC2)cc1	nt	nt	-2%	2%	nt	?	-1%	nt
COc1ccccc1C(=O)NNC(=O)c1nn(Cc2ccccc2)c(=O)c2ccccc12	?	nt	-2%	1%	nt	?	nt	?
O=C(COC(=O)CCSc1ccc(Cl)cc1)NCc1ccc(Cl)cc1	-2%	-5.2%	16%	3%	16%	35%[activator]	-5%	10%[46.1 µM]
CCOc1ccccc1NC(=O)COc1ccc(S(=O)(=O)N2CCCC2)cc1	-23%	nt	3%	4%	nt	-25%	0%	-2%
COc1ccc(NC(=O)CN(C)C(=O)CN2C(=O)C3CCCCC3C2=O)cc1 (configuration not stated)	15%	nt	3%	-5%	nt	-22%	nt	9%
CCCCN1CC(O)=C(c2nc(-c3ccc(Cl)cc3)cs2)C1=N	4%	0.2%	-4%	23%	?	6%	-3%	4%
